NS1 inh = inhibitors of influenza NS1 protein function; S. cerevisiae slowed by influenza A NS1, growth recovery by OD600; Potency, µM (top dose mostly 46.1 µM), for the others: at the highest dose activity, positive = more growth; 270,000 tested, 0.4% active; further: actives are rising curves; nearly all actives have a fitted effect of over 50% in size
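Compounds were scored for reversing the slow growth caused by influenza A NS1 in S. cerevisiae, measured by optical density at 600 nm. Assay medium contained 2% galactose at pH 6.0; NS1-free yeast of the same strain were the positive control.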
Cruzain noTriton = cruzain (T. cruzi) inhibition without detergent. P25779. purified cruzain, Z-FR-AMC fluorescence, no detergent. Potency, µM, for the others: max response, negative = inhibition, most hits filed as inhibitors. 200,000 tested, 2.3% active. AID 1476; active means well fitted curve in the direction sought with a large enough effect; inconclusive means small, poorly fitted or top-dose-only effect, or another doubt; inactive means no such curve, though single readings can be large; an effect the other way counts as inactive or inconclusive;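 further: plate controls were enzyme without inhibitor for no effect and buffer without enzyme for full effect; nearly all actives have a fitted effect of over 40% in size; top concentration of the series not given in the record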
Target sequence (P25779 123-467 limits assumed): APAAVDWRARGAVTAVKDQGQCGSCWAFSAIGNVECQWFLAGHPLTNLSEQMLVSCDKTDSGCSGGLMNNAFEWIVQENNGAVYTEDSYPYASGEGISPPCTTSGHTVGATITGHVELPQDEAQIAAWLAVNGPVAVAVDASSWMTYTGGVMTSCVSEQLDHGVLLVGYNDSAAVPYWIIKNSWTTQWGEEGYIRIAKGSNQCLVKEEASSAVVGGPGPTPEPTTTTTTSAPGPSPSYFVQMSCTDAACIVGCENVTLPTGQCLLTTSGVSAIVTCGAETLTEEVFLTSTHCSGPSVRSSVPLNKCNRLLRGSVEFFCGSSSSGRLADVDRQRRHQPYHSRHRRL
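Purified cruzain at 1.5 nM, pre-incubated 15 min with compound at room temperature in 100 mM sodium acetate pH 5.5, 5 mM DTT, 0.00005% Triton X-100. Reaction started with 2 uM Z-FR-AMC; AMC fluorescence increase over 60 s gives rate.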
Cruzain Triton = inhibitors of Trypanosoma cruzi cruzain with detergent | P25779 | purified cruzain, Z-FR-AMC fluorescence, 0.01% Triton | Potency, µM, for inactives: max response, negative = inhibition, most hits filed as inhibitors | 200,000 tested, 0.43% active | AID 1478; active means well fitted curve in the direction sought with a large enough effect; inconclusive means small, poorly fitted or top-dose-only effect, or another doubt; inactive means no such curve, though single readings can be large; an effect the other way counts as inactive or inconclusive;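 further: plate controls were neutral wells for no effect and buffer without enzyme for full effect; nearly all actives have a fitted effect of over 40% in size; top concentration of the series not given in the record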
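Z-FR-AMC hydrolysis (2 uM substrate) by cruzain (1.5 nM) monitored kinetically at ex 360/em 450 nm after 15 min room-temperature compound exposure; 0.01% Triton X-100, pH 5.5, 5 mM DTT.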
LASV entry inh = blocks Lassa virus binding to or entry into cells. Lassa virus pseudotype entry inhibition, cell reporter; control for the full effect not named in the record. Potency, µM (highest dose often 37.9 µM), for the others: at the top dose activity change, negative = inhibition, most hits filed as inhibitors. 300,000 tested, 1.2% active; active means well fitted inhibition curve with a large enough effect; inconclusive means small, poorly fitted or top-dose-only effect, or effect the other way; inactive means flat fitted curve, though single readings scatter; tested in HEK293 cells; further: on the % scale 0 is the no-effect control and ±100 the full control effect; nearly all actives have a fitted effect of over 50% in size; luciferase read-out
RE007 growth inh = less growth of the S. pombe RE007 Vpr strain | S. pombe RE007 Vpr strain, BacTiter-Glo ATP luminescence, 24 h; control for the full effect not named in the record | Potency, µM (titrated, usually from 92.2 µM), for the others: at the top dose activity change, negative = less growth | 360,000 tested, 0.21% active; active = well fitted falling curve with a large enough effect; inconclusive = small, poorly fitted or top-dose-only effect; inactive = no such curve, though single readings can be large or run the other way;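 further: on the % scale 0 is the no-effect control and ±100 the full control effect; nearly all actives have a fitted effect of over 50% in size; the assay follows cell death caused by Vpr and the record does not say whether a fall means rescue or toxicity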
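Fission yeast strain RE007, carrying one chromosomally integrated HIV-1 vpr copy, was seeded at OD 0.01 in PMG+AL medium with 23 nL pinned compound. After 24 h at 30 °C and 99% humidity, viability was read by BacTiter-Glo luminescence.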
2A StopGo = lowers the luciferase signal of an FMDV 2A StopGo reporter; human cells with a luciferase reporter of 2A StopGo recoding; control for the full effect not named in the record; Potency, µM (highest dose often 57.9 µM), without a hit: at the highest dose signal change, negative = less light; 410,000 tested, 1.2% active; AID 1159524; active = well fitted falling curve with a large enough effect; inconclusive = small, poorly fitted or top-dose-only effect; inactive = no such curve, though single readings can be large or run the other way; tested in HEK293T cells; further: on the % scale 0 is the no-effect control and ±100 the full control effect; nearly all actives have a fitted effect of over 45% in size; luciferase light after 4 h
SARS PLpro yeast = blocks SARS-CoV papain-like protease in a yeast assay | 330,000 tested, 0.19% active | Potency, µM (doses to about 32.9 µM), for the others: at the top dose activity, positive = growth rescue | S. cerevisiae expressing SARS-CoV PLpro, growth rescue; control for the full effect not named in the record | AID 485353; further: 0% is about no effect; nearly all actives have a fitted effect of over 55% in size; growth read by luminescence after 48 h
Marburg entry inh = Marburg virus entry inhibition; Potency, µM (titrated, usually from 37.8 µM), inactives show at the top dose activity change, negative = inhibition, hits mostly inhibitors; Marburg virus pseudotyped entry inhibition, cell reporter; control for the full effect not named in the record; about a third of the inactives were read at about 46 µM; AID 540276; 300,000 tested, 1.8% active; active = well fitted inhibition curve with a large enough effect; inconclusive = small, poorly fitted or top-dose-only effect, or effect the other way; inactive = flat fitted curve, though single readings scatter; tested in HEK293 cells; about a fifth of its hits are not listed in these tables; further: on the % scale 0 is the no-effect control and ±100 the full control effect; luciferase read-out
The depositor's hits bear a star; ? = inconclusive; / = not tested or not shown; & = joins results of further samples; [ ] = remark or other dose. Unless noted, the call rests on the fitted dose curve; in most records, active means well fitted rising curve with a large enough effect; inconclusive means small, poorly fitted or top-dose-only effect; inactive means no such curve, though single readings can be large or run the other way. Potency means the concentration at half of the fitted maximal effect. Rows are unselected; overall some 4.7% were active at least once.

SMILES	NS1 inh	Cruzain noTriton	Cruzain Triton	LASV entry inh	RE007 growth inh	2A StopGo	SARS PLpro yeast	Marburg entry inh
Cc1ccc2nc(N3CCOCC3)c(C=O)c(=O)n2c1	0%	/	/	-2%[46.1 µM]	-19%	21%	0%	2%[46.1 µM]
CC(C)NC(=O)Cn1nnc(-c2ccc(Cl)cc2)n1	-3%	8%	2.3%	11%	23%	13%	-2%	3%
COCC1CCN(C(=O)c2cc(COc3ccc4ncccc4c3)on2)CC1	2%	/	/	?	0%	?	0%	-19%[46.1 µM]
O=C(CSc1nc(O)c(Cc2ccccc2)c(=O)[nH]1)Nc1nnc(SCc2ccccc2)s1	/	/	/	7%[46.1 µM]	-3%	1%	6%	-1%[46.1 µM]
O=S(=O)(Nc1ccc(-n2cnnn2)cc1)c1ccc(Cl)s1	/	/	/	22%[46.1 µM]	0%	35%[activator]	3%	-14%[46.1 µM]
Brc1ccc2c(c1)C(OC1CN3CCC1CC3)c1ccccc1CS2 (stereo unspecified)	6%	-7%	-4.9%	?	14%	-11%	7%	4µM*
CC(C)CC(=O)NC(=S)Nc1cccc(NC(=O)c2ccccc2Cl)c1	2%	-8%	-28%	?	32%	-3%	15%	-8%
COc1cc(/C=C2\N=C(C)OC2=O)cc(OC)c1OC	10%	/	/	/	-1%	-20%	22%	/
COc1ccccc1Nc1sc(C(=O)c2ccc(C)cc2C)c(N)c1S(=O)(=O)c1ccccc1	/	7.9µM*	-1.3%	-23%[46.1 µM]	/	-14%	/	/
O=c1c2c(nc3nc(SCc4ccccc4)[nH]n13)CCC2	-9%	-4%	-1.6%	19%	-7%	3%	2%	-4%
CC(C)c1ccc(Nc2ccc(C(=O)O)cc2[N+](=O)[O-])cc1	-89%	/	/	?	94%	23%	-9%	-1%
COc1cccc(C(=O)N2CCN(c3ccccn3)CC2)c1	19%	/	/	-5%	-14%	1%	0%	2%
Cc1cc(S(=O)(=O)NC(C)C)ccc1OCC(=O)N1CCN(Cc2ccc3c(c2)OCO3)CC1	-21%	4%	5.2%	8.2µM*	5%	?	1%	?
Cc1ccc(-c2cc(C(=O)NCc3ccccn3)c3ccccc3n2)cc1	-9%	16%	-14%	?	-20%	39%[activator]	-14%	?
O=C(Nc1cc([N+](=O)[O-])ccc1Cl)c1cccnc1	-8%	/	/	1%[46.1 µM]	-6%	-14%	?	?
Brc1ccccc1-c1nnc(COc2ncnc3c2cnn3-c2ccccc2)o1	-19%	-15%	-4.1%	?	14%	?	-1%	?
Cc1cnc(NC(=O)C2CC(=O)N(c3cccc(Cl)c3)C2)s1 (stereo unspecified)	3%	/	/	/	-2%	-13%	-1%	/
Cc1c(C(=O)N2CCCCC2)c(S(=O)(=O)NCCc2ccc(S(N)(=O)=O)cc2)c(C)n1C	-11%	/	/	9%[46.1 µM]	-6%	-9%	-3%	6%[46.1 µM]
O=C(Nc1nc2c(Cl)cccc2s1)c1ccc(Br)o1	-71%	15%	6.8%	3%	-11%	10%	-4%	-14%
CN(C)S(=O)(=O)c1ccc(C(=O)Nc2ccc(OCC(=O)N3CCOCC3)cc2)cc1	-10%	-2%	3.1%	26%	1%	-24%	6%	11%
C=CCNc1oc(COc2ccc(C)cc2)nc1C#N	-48%	-17%	-0.1%	/	2%	15%	0%	/
Cc1csc(SCC(=O)Nc2c(C)n(C)n(-c3ccccc3)c2=O)n1	2%	0%	4.4%	11%	-12%	4%	6%	-1%
CS(=O)(=O)N(CC(=O)Nc1cccc([N+](=O)[O-])c1)c1ccccc1F	0%	/	/	/	12%	10%	0%	/
COc1ccc(/C=N/NC(=O)c2ccc(CN3c4cccc5cccc(c45)S3(=O)=O)cc2)cc1	?	16µM*	-9.2%	?	7%	1%	3%	-25%
O=C1NC(=O)C2(CCCCCCC2)N1	/	/	/	9%[46.1 µM]	-14%	6%	/	1%[46.1 µM]
COCCSc1nnc(NS(=O)(=O)c2ccc(F)cc2)s1	6%	/	/	4%[46.1 µM]	9%	1%	0%	12%[46.1 µM]
O=C(CSc1nnnn1-c1ccc(F)cc1)c1ccc(O)c(O)c1	/	/	/	-16%[46.1 µM]	-4%	0%	16%	-14%[46.1 µM]
CCCCN1C(=O)CN(C2CCCCCC2)C(=O)C1c1ccc(OCC)c(OC)c1 (stereo unspecified)	/	15%	-0.2%	-18%[46.1 µM]	/	-24%	/	/
CN(C)S(=O)(=O)c1cccc(C(=O)C2=C3SC=C(c4ccccc4)N3CC2)c1	-5%	25µM*	-3.7%	4%	0%	-3%	12%	-19%[46.1 µM]
COc1ccc(/C=N\N2CCN(Cc3ccccc3Cl)CC2)cc1	22%	/	/	/	?	-19%	-1%	/
CC(C)(C)c1ccc(/C=C2/SC(N3CCCC3)=NC2=O)cc1	0%	/	/	?	-7%	-17%	-2%	?
Cc1cccc(C)c1OCC(=O)N(Cc1cccs1)C1CCS(=O)(=O)C1 (stereo unspecified)	-7%	/	/	/	-4%	-25%	5%	/
CC(C)(O)C#Cc1ccccc1C(=O)NC(CC(N)=O)C(=O)O (stereo unspecified)	6%	-6%	3.5%	16%	23%	-23%	/	0%
S=C1NCN(Cc2cccnc2)CN1c1cccc2ccccc12	-7%	/	/	2%	-15%	0%	-2%	1%[14.2 µM]
CCN(CC)S(=O)(=O)c1cccc(NC(=O)COC(=O)C2COc3ccccc3O2)c1 (stereo unspecified)	-29%	3%	-4.1%	13%	1%	-1%	-3%	0%
CCCC1=C(C(=O)OCC)C(c2ccc(O)cc2)n2ncnc2N1 (stereo unspecified)	8%	1%	-1.8%	-20%	-21%	-23%	1%	-6%
CC(=O)c1ccc(NC(=O)CCNS(=O)(=O)c2ccccc2F)cc1	12%	/	/	?	0%	17%	-1%	-4%[46.1 µM]
COCCCNC(=O)CCn1c(=O)c2ccccc2n(CC(=O)Nc2ccc(C)cc2C)c1=O	9%	4%	2.3%	2%	0%	-18%	7%	6%&6%
Cc1ccc(C)c(N2CCN(C(=O)c3cccn4c(=O)c5sccc5nc34)CC2)c1	/	/	/	?	-6%	?	0%	13µM*
O=C(O)CCC(=O)Nc1ccc2c(c1)oc1ccccc12	0%	-10%	-2.2%	-28%	-19%	37%[activator]	0%	-12%
COc1ccc([N+](=O)[O-])cc1NC(=O)C(C)OC(=O)C1CC(=O)N(Cc2ccco2)C1 (stereo unspecified)	/	/	/	4%	-2%	-1%	1%	19%
CCn1cc(/C=C/C(=O)Nc2c(C)nn(Cc3ccccc3C)c2C)cn1	3%	0%	-0.5%	-1%	-7%	-17%	12%	2%
CC1(Cc2cn(CCC#N)c3ccccc23)OCCO1	6%	10%	5.9%	-5%	2%	13%	2%	14%[46.1 µM]
CC(=O)N1CCCc2cc(S(=O)(=O)N3CCCC(C(=O)Nc4ccc(F)cc4F)C3)ccc21 (stereo unspecified)	/	20%	-2.3%	-18%[46.1 µM]	/	?	/	/
COc1ccc(C2=NO[C@@H]3C(=O)N(Cc4ccccc4)C(=O)[C@H]23)cc1OC	-22%	10%	-4.5%	1%	-1%	19%	0%	?
CC1CC(C)CN(CC(=O)Nc2ccc(S(N)(=O)=O)cc2)C1 (stereo unspecified)	-4%	-1%	-0.6%	0%	-2%	-5%	5%	0%
Cc1c(C(=O)O)sc2nc(-c3cccs3)cc(C(F)(F)F)c12	-31%	/	/	-12%	-4%	-14%	-4%	5%[46.1 µM]
CCOC(=O)c1cnc(SCC(=O)OCC(=O)N(CC)C2CCS(=O)(=O)C2)nc1N (stereo unspecified)	/	/	/	-6%	-4%	-12%	-1%	-3%
Cc1ccc(S(=O)(=O)N2CCOCC2)cc1NC(=O)COC(=O)Cn1c(C)csc1=O	/	/	/	-1%	-18%	-22%	-3%	16%
COc1ccc(-c2nc(-c3ccc(NC(=O)c4ccc(Br)o4)cc3)no2)cc1OC	-12%	?	5.7%	-28%	-2%	-17%	-2%	?

Further results
SMILES	NS1 inh	Cruzain noTriton	Cruzain Triton	LASV entry inh	RE007 growth inh	2A StopGo	SARS PLpro yeast	Marburg entry inh
CCc1sc(NC(=O)CCC(=O)O)nc1-c1cc2ccccc2oc1=O	/	/	/	1%	-2%	3%	0%	9%
CCc1ccc(-c2csc3ncn(CC(=O)N4CCOCC4)c(=O)c23)cc1	0%	?	2.9%	-2%	1%	0%	8%	-26%[46.1 µM]
Cc1ccc[n+](CC(=O)c2ccc(Br)cc2)c1	8%	/	/	/	-1%	-23%	1%	/
Cc1cc(NS(=O)(=O)c2ccc(NC(=O)C(C)N3C(=O)c4ccccc4C3=O)cc2)nc(C)n1 (stereo unspecified)	2%	1%	3.6%	3%	5%	36%[activator]	3%	16%&16%
O=C1N(c2ccc3c(c2)OCCO3)C(c2ccccc2)C1(F)F (stereo unspecified)	/	/	/	-1%	0%	0%	-4%	-10%[46.1 µM]
Cc1ccccc1NC(=O)CNC(=O)c1ccc(C(F)(F)F)cc1	8%	?	-0.9%	?	-3%	39%[activator]	17%	10%
C=CCn1c(=O)/c(=C/c2ccc(Cl)cc2)s/c1=C(/C#N)c1nnc2n1CCCCC2	-36%	?	-16%	?	8%	/	-10%	?
CC1=C(C(=O)Nc2ccc(C)cc2C)C(c2cccs2)NC(=S)N1 (stereo unspecified)	-3%	-2%	-4.0%	18%	-12%	-10%	4%	10%
O=C(CSc1nnc(-c2cc(-c3cccs3)nc3ccccc23)o1)NC1CCCCC1	5%	?	-6.8%	-4%	0%	-16%	1%	-13%
CCOC(=O)C1=c2/c(=C/c3ccncc3)c(N)c(C(=O)OC)n2C(=O)C(c2ccncc2)S1 (stereo unspecified)	7%	/	/	-2%	3%	?	-1%	?
O=C(Nc1ccc(Cl)cn1)c1ccc(COc2ccccc2Br)o1	/	/	/	13%[46.1 µM]	-27%	10%	-7%	8%[46.1 µM]
CCCCCCCNc1nc(Cl)nc(NCCO)n1	4%	/	/	9%	4%	-16%	-1%	-6%

High-throughput results deposited in PubChem by National Center for Advancing Translational Sciences (NCATS).
